Screening data deposited in PubChem BioAssay by Center for Chemical Genomics, University of Michigan.
HIV TAR-Tat: TAR RNA-Tat peptide displacers, HIV-1, primary screen, biochemical, FRET, FAM/TAMRA-labeled Tat | HIV-1 TAR RNA, Tat peptide displacement FRET; active compounds read high | z-score (concentration not given with the values) | 100,000 compounds, 0.6% hits;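 also: score is relative to mean and SD of negative controls; some compounds called inactive have numbers as strong as hits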
CDC25B-CDK2 inh: primary biochemical HTRF screen for blockers of M-phase inducer phosphatase 2 binding to CDK2/cyclin A | HTRF CDC25B-CDK2/CyclinA binding, anti-His/anti-Flag; active compounds read high | P30305+P24941 | z-score (test concentration not listed) | 94,000 compounds, 0.72% hits;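 also: score is relative to mean and SD of negative controls; strong numbers were not always called active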
The depositor's hits bear a star; . = no result given.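 The calls were made as follows: active = z-score from 3 up in half or more of its runs; inactive = the rest.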

SMILES	HIV TAR-Tat	CDC25B-CDK2 inh
CNCCC(Oc1ccccc1C)c1ccccc1 (configuration not stated)	.	-1.2
O=C(C1CCN(Cc2cnn(-c3ccccc3)c2-n2cccc2)CC1)N1CCN(c2ncccn2)CC1	-0.74	-0.38
Cc1cc2c(cc3c(SCc4ccc(F)cc4Cl)nncn32)o1	0.55	.
COCCCNc1nc(Nc2ccc(Cl)cc2)c2cnn(C)c2n1	-0.76	.
CCCCC(=O)Nc1nc2nc(C)c(Cl)c(C)n2n1	-0.3	-1.6
N#CC1=C2SCN(C3CCCCC3)CN2C(=O)CC1c1ccccc1 (configuration not stated)	2.1	-1.3
Cc1ccccc1OCCSc1nc(-c2ccc(F)cc2)nc2cc(=O)[nH]n12	-1	.
c1csc(-c2ccnc(SCc3ccc4nonc4c3)n2)c1	.	-0.35
CCc1nn(CC(=O)NCCN2CCCCCC2)c(=O)c2cc3sccc3n12	.	-1.5
Cc1ccc(S(=O)(=O)NCC(c2cccnc2)N2CCc3ccccc32)cc1 (configuration not stated)	1.3	-1.8
COc1ccc(-n2nc(C(=O)Nc3ccccc3OC)c3c4ccccc4n(C)c3c2=O)cc1Cl	1.4	1
Cn1cnc(S(=O)(=O)N2CCN(C(c3ccccc3)c3ccccc3)CC2)c1	1.2	.
CCN(c1ccccc1)S(=O)(=O)c1ccc2c3c1CC(=O)N3CC(C)S2 (configuration not stated)	-1.1	.
CCn1c(=O)[nH]c2cc(-c3noc(COc4ccccc4)n3)ccc21	0.47	.
OC(COc1ccc(F)cc1)(c1ccccc1)c1ccccc1	.	-0.64
FC(F)(F)c1cccc(-c2nc(-c3cnccn3)no2)c1	.	-2.5
O=C(C1COc2cc(S(=O)(=O)N3CCCc4ccccc43)ccc2O1)N1CCOCC1 (configuration not stated)	1.7	.
O=C(NC1CCCC1)c1noc2c1CCc1sccc1-2	0.01	.
COc1ccc(CNc2ncnc3sc4c(c23)CCCC4)cc1	0.87	-1.7
COc1ccc(NS(=O)(=O)c2cc(-c3noc(C)n3)cs2)cc1OC	1.8	.
COc1ccc(NC(=O)CCSc2nc(-c3ccco3)cc(C(F)(F)F)n2)cc1	-0.53	-2.1
C/C=C/C/C=C/CCC(=O)[C@H]1O[C@H]1C(N)=O	2.9	.
Cc1ccc(S(=O)(=O)Nc2cc(Sc3nc4ccccc4[nH]3)c(O)c3ccccc23)cc1	.	18*
CCc1ccc(-n2nc(-c3nc(-c4ccccn4)no3)c3ccccc3c2=O)cc1	-1.3	.
COC(=O)c1nc2nc(C)cc(=O)n2[nH]1	-0.77	-0.85

7 entries out of the list, arranged by number of heavy atoms, ascending:
SMILES	HIV TAR-Tat	CDC25B-CDK2 inh
COC(=O)c1nc2nc(C)cc(=O)n2[nH]1	-0.77	-0.85
O=C(NC1CCCC1)c1noc2c1CCc1sccc1-2	0.01	.
Cc1cc2c(cc3c(SCc4ccc(F)cc4Cl)nncn32)o1	0.55	.
Cc1ccccc1OCCSc1nc(-c2ccc(F)cc2)nc2cc(=O)[nH]n12	-1	.
COc1ccc(NC(=O)CCSc2nc(-c3ccco3)cc(C(F)(F)F)n2)cc1	-0.53	-2.1
CCc1ccc(-n2nc(-c3nc(-c4ccccn4)no3)c3ccccc3c2=O)cc1	-1.3	.
O=C(C1COc2cc(S(=O)(=O)N3CCCc4ccccc43)ccc2O1)N1CCOCC1 (configuration not stated)	1.7	.

Later entries
SMILES	HIV TAR-Tat	CDC25B-CDK2 inh
O=C(Oc1ccc(Cl)cc1)c1ccc2c(c1)CCO2	.	0.54
O=C(O)c1ccccc1NC1SC(=O)N(c2ccccc2)C1=O (configuration not stated)	.	1.4
O=c1[nH]cnc2nc(N3CCCC3)sc12	-0.1	-0.02
O=c1[nH]c2ccccc2c(=O)n1Cc1ccco1	0.52	-0.82
CN(C)CCNc1cc(N2CCN(C(=O)c3ccco3)CC2)c2noc3c2c1C(=O)c1ccccc1-3	-0.36	-1.9
CC(C)CNc1cc(=O)n(C)c(=O)n1C	-0.27	-1.3
COc1ccc(OC)c(-c2noc(N3CCN(c4ccc(Cl)cc4)CC3)n2)c1	2	.
O=c1nc(SCc2ccccc2)c2c(n1C1CCCCC1)CCC2	0.66	-1
CCN(CC)CCNc1nc(N2CCN(C)CC2)c2cnn(C)c2n1	-0.3	.
CCC(O)c1nc2ccccc2n1CC(=O)N(c1ccccc1)C(C)C (configuration not stated)	1.7	-1.2
COc1cc2[nH]c3c(=O)n(CCN4CCCCC4C)cnc3c2cc1OC (configuration not stated)	6.4*	-1.1
Cc1nn(CCCC(=O)NC2CCC(C)CC2)c(=O)c2c1sc1ccccc12 (configuration not stated)	2.1	-2.4
Cc1sc2c(c1C)CN(S(C)(=O)=O)C(c1ccccc1)c1cccn1-2 (configuration not stated)	1.8	.
CCN(CCNS(=O)(=O)c1cc(-c2cc(C)no2)ccc1C)c1cccc(C)c1	0.33	.
CCOCCCNC(=O)Cn1cnc2onc(C)c2c1=O	0.91	.
Cc1cc(NC(=O)Cn2c(=O)oc3cc(Cl)ccc32)no1	0.55	.
O=C1CC(Cc2ccccc2)C(=O)N1c1ccncc1 (configuration not stated)	-0.57	-2.1
O=C(c1ccccc1)N(Cc1ccccc1F)C1CCS(=O)(=O)C1 (configuration not stated)	-0.33	-2.6
O=C(NCC1CCCO1)c1nnc(Cc2ccc(F)cc2Cl)o1 (configuration not stated)	2.8	-1.5
COc1ccc(C2C(=O)N(C3CCCCCC3)CC(=O)N2C2CCCCC2)cc1 (configuration not stated)	.	-1.5
O=C(Cn1nnc(-c2ccccc2C(F)(F)F)n1)NNC(=S)Nc1cc(Cl)cc(Cl)c1	.	0.38
COc1cccc(OCCCCCN2CCCCC2)c1	2.7	-0.84
CN(C)C(=O)c1ccc2c(c1)N(CC(N)=O)C(=O)C1CCCCN21 (configuration not stated)	1.6	.
O=c1ccc(-c2ccc(S(=O)(=O)N3CCCc4ccccc43)s2)n[nH]1	-0.99	.
Cc1cc(NCc2ccco2)nc2cc(O)ccc12	0.92	-0.91
Continuation.
SMILES	HIV TAR-Tat	CDC25B-CDK2 inh
CCOC(=O)CN(C)C1=NS(=O)(=O)c2ccccc21	.	1.5
COc1ccc(S(=O)(=O)n2nc(-c3cccc(OC)c3)cc2N)cc1	0.71	-1.4
CCCS(=O)(=O)N1CCCc2ccc(NS(=O)(=O)c3ccc4c(c3)CCCC4)cc21	1.5	.
CS(=O)(=O)c1nc(S(=O)(=O)c2ccc(Cl)cc2)c(N2CCOCC2)s1	-0.74	0.11
CN(CC(=O)NCC1CCCO1)S(=O)(=O)c1ccc2c(c1)CCCC(=O)N2 (configuration not stated)	1.2	.
Cc1nn2cc(-c3ccc(F)cc3)nc2s1	0.8	-0.1
CC(C)OC(=O)c1ccc(N2CC(O)=C(c3nc4ccccc4n3C)C2=N)cc1	-0.32	-2.2
O=C(O)CCCCCNc1ncnc2ccc(Br)cc12	-0.84	-0.2
Cc1noc(C)c1S(=O)(=O)N1CCOCC1	.	-2
Cc1nn(Cc2cccc(C(=O)N=S(C)(=O)c3ccc(Cl)cc3)c2)c(C)c1Br (configuration not stated)	.	0.61
Cn1c(=O)oc2cc(S(=O)(=O)N3CCCC(C(=O)N4CCOCC4)C3)ccc21 (configuration not stated)	.	-0.6
COc1cccc(-c2nc(-c3ccccc3)no2)c1OC	1.5	-0.49
COc1ccccc1CNc1nc2ccccc2n2cnnc12	0.01	-1.4
CNC(=O)c1c(O)c2cccc3c2n(c1=O)CC3	1.1	.
COc1cccc(-c2noc3ncnc(Nc4ccc(OC)c(OC)c4)c23)c1	1.3	.
c1ccc(-c2cn3ccccc3n2)cc1	0.46	0.36
CC1CN(CCn2cnc3c(N)ncnc32)CC(C)O1 (configuration not stated)	.	-0.37
CCOC(=O)C1C(=O)C=C(/C=C/c2cccs2)CC1c1ccccc1 (configuration not stated)	0.05	0.04
CC1(C)CC(=O)c2c(-c3ccc(Br)cc3)n[nH]c2C1	.	0.54
Cc1ccc(NS(=O)(=O)c2cc(-c3cnc(C4CC4)o3)ccc2C)cc1C	1	.
CCOc1ccc(NC(=O)N2CCCC2c2ccco2)cc1 (configuration not stated)	1.6	-2.6
COc1ccc(-c2ccc(-c3noc(-c4ccccc4)n3)c(OC)n2)cc1	0.28	0.79
COCc1cc(=O)[nH]c(Cc2c(Cl)cccc2Cl)n1	.	-1.7
CC(CS(=O)(=O)c1ccc2c(c1)NC(=O)CS2)C(=O)Nc1cc(F)ccc1F (configuration not stated)	-7.2	.
COc1cc(Cl)c(NS(=O)(=O)c2cc(-c3onc(C)c3C)ccc2C)c(OC)c1	0.46	.

2 of these compounds, set out differently.
Molecule | HIV TAR-Tat | CDC25B-CDK2 inh
COc1ccc(S(=O)(=O)n2nc(-c3cccc(OC)c3)cc2N)cc1 | 0.71 | -1.4
CCCS(=O)(=O)N1CCCc2ccc(NS(=O)(=O)c3ccc4c(c3)CCCC4)cc21 | 1.5 | .

The listing continues:
SMILES	HIV TAR-Tat	CDC25B-CDK2 inh
CCCc1nnc(NC(=O)c2cc(=O)c3ccccc3o2)s1	1.1	-0.17
O=C1CC(c2ccccc2)c2cc(Cl)ccc2O1 (configuration not stated)	2	-1.4
O=C(CSc1oc(-c2cccs2)nc1S(=O)(=O)c1ccc(F)cc1)NCC1CCCO1 (configuration not stated)	1.9	-1.3
COc1ccc(C2CC(c3ccc(Cl)cc3)Nc3nnnn32)cc1 (configuration not stated)	2.5	.
CC1=C(C(=O)NCc2cccs2)C2(CCCCC2)OC1=O	0.26	-1
O=C(CSc1nnc(-c2ccncc2)o1)NCc1ccc2c(c1)OCO2	2.3	-1.8
CNC(=O)c1c(NC(=O)c2cccc(F)c2)sc2c1CCC2	0	.
CC(C)OCCCNC(=O)CCC(=O)n1ncc2ccc(Cl)cc21	0.05	-0.49
Nc1nc2ccc(C(=O)N3CCCCC3)cc2s1	0.2	1.5
Cc1ccc(C2CC(=O)C3=C(C2)Nc2ccccc2NC3c2ccccc2)cc1 (configuration not stated)	.	-4.9
COc1ccc(-c2nc3nc(C)cc(N4CCCC4)n3n2)cc1	1.8	-1.5
COc1ccc(OCc2nnc3n2N=C(c2ccc(Br)cc2)CS3)cc1	1	0.7
Cc1nnc(SCc2cccc(F)c2)c2cc3sccc3n12	5	.
NC[C@H]1O[C@H](O[C@H]2[C@H](O)[C@@H](O[C@H]3O[C@H](CO)[C@@H](O)[C@H](N)[C@H]3O)[C@H](N)C[C@@H]2N)[C@H](N)[C@@H](O)[C@@H]1O	3.3	.
Cc1ccc2c(c1)c1c(n2CC(O)CNCCO)C(=O)CCC1 (configuration not stated)	-1.3	1
O=C(Cn1ncn2c(cc3ccccc32)c1=O)NCc1cccs1	-1.4	-1.9
Cc1ccc(C)c(NS(=O)(=O)c2ccc3c(c2)CCN3)c1	1.3	.
Cc1ccc(-c2nnc3n2NC(=O)CS3)cc1	0.2	-2.2
CCNc1nc(NCCc2cccs2)c2cnn(C)c2n1	0.65	.
Cn1c(C(=O)N2CCC(C(=O)NC(=O)C3CCNCC3)CC2)cc2sccc21	0.83	-1.7
Cc1nn(-c2ccccc2)c2sc(C(=O)Nc3ccc4c(c3)OCCO4)cc12	.	0.14
CCCN1C(=O)C(Cc2nc3ccccc3c(=O)n2CCCO)c2cc(Br)ccc21 (configuration not stated)	1.5	-0.2
CCN(CC)c1ccc(NS(=O)(=O)c2ccc(-c3cnc(C4CC4)o3)cc2)c(C)c1	1.6	.
Nc1nc(-c2ccc(F)cc2)nn1C(=O)c1cccc2ccccc12	-0.92	-1.2
O=C(Nc1ccc(F)cc1)c1cc(-c2cccs2)on1	0.11	-1.6
Next compounds
SMILES	HIV TAR-Tat	CDC25B-CDK2 inh
Cc1ccc2cc(NC(=O)c3cc(C)n(C)n3)ccc2n1	.	-4.8
N#Cc1nc(-c2ccc(S(=O)(=O)N3CCc4ccccc4C3)cc2)oc1N1CCCC1	-0.58	0.18
CCCn1nc(NS(=O)(=O)c2ccccc2)c2cc3ccccc3nc21	-0.17	-0.72
CC(C)n1c(=S)[nH]c2ccccc21	.	-2.4
N#Cc1nc(/C=C/c2ccc(F)cc2)oc1NCC1CCCO1 (configuration not stated)	0.28	0.03
Cc1nn(-c2cc(N(C)C)ncn2)c(C)c1CCC(=O)N1CCN(CCO)CC1	0.42	-0.01
COc1ccc2c(c1)CC(NC(=O)Nc1ccc(OC)c(Cl)c1)CO2 (configuration not stated)	0.71	.
O=C(c1ccc(NC2=NC3CS(=O)(=O)CC3S2)cc1)N1CCN(c2ccc(F)cc2)CC1 (configuration not stated)	1.5	.
CCCOC(=O)C1=C(C)NC2=C(C(=O)CCC2)C1c1cc(OC)c(OC)cc1Br (configuration not stated)	2.4	-2
CC12CN3CC(C)(CN(C1)C3c1ccc(OCc3ccccc3)cc1)C2 (configuration not stated)	0.19	-1.1
CCS(=O)(=O)N1CCCc2ccc(NS(=O)(=O)c3ccc(C)c(C)c3)cc21	-0.48	.
O=C(c1n[nH]c2c1CCCC2)n1ccnc1	.	-1.8
CSc1n[nH]c(NC(=O)Nc2ccccc2)c1S(=O)(=O)c1ccc(Cl)cc1	.	0.03
Cc1ccc(-c2noc3ncnc(N(Cc4ccco4)CC4CCCO4)c23)cc1 (configuration not stated)	1	.
Cc1cc(NC(=O)NCc2cccnc2)no1	.	-1.4
C=CCn1c(=S)[nH]c2sc3c(c2c1=O)CCC(C)C3 (configuration not stated)	.	-2.4

In another format: 7 of the compounds above.
Second line of a record – HIV TAR-Tat	CDC25B-CDK2 inh
> N#Cc1nc(-c2ccc(S(=O)(=O)N3CCc4ccccc4C3)cc2)oc1N1CCCC1
→ -0.58	0.18
> C=CCn1c(=S)[nH]c2sc3c(c2c1=O)CCC(C)C3 (configuration not stated)
→ .	-2.4
> CC(C)n1c(=S)[nH]c2ccccc21
→ .	-2.4
> Cc1ccc2cc(NC(=O)c3cc(C)n(C)n3)ccc2n1
→ .	-4.8
> O=C(c1n[nH]c2c1CCCC2)n1ccnc1
→ .	-1.8
> Cc1nn(-c2cc(N(C)C)ncn2)c(C)c1CCC(=O)N1CCN(CCO)CC1
→ 0.42	-0.01
> CCCOC(=O)C1=C(C)NC2=C(C(=O)CCC2)C1c1cc(OC)c(OC)cc1Br (configuration not stated)
→ 2.4	-2
